Screens (PubChem BioAssay)
HNF4A DNA FP: change in binding of human HNF4 alpha to DNA | HNF4a-FITC DNA binding, fluorescence polarization, 1 h | activity change, % at 10 µM | 0.3% of 360,000 active; in the data active means activity change above about 30%, passing the limit was not always enough;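 further: controls were the assay level and a saturating level of protein; the project sought stronger binding though the title names inhibitors; some compounds called inactive have numbers as strong as hits; positive values seem to mean higher polarization but the record does not say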
Target sequence (P41235 whole entry, looked up): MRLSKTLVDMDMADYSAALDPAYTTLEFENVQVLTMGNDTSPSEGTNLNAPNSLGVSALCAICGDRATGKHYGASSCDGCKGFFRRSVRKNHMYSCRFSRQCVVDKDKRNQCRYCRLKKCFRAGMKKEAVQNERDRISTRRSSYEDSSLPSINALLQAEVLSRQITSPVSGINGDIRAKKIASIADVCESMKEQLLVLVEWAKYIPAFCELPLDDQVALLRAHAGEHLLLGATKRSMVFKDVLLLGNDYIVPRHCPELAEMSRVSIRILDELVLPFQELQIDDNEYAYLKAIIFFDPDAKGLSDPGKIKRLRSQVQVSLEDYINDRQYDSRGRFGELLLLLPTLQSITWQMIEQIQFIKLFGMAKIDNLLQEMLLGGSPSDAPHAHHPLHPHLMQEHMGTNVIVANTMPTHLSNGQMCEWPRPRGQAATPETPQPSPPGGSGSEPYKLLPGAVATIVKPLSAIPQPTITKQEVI
ALR H2O2 inh: blocks human ALR sulfhydryl oxidase activity | P55789 | purified ALR, DTT oxidation, H2O2 HRP-luminol luminescence | inhibition, % (concentration not given with the values) | 3.8% of 290,000 active | AID 485317;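 active means mean and each replicate at 75% or more; inconclusive means only one of the two met; inactive means neither met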;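 further: stock transfer was 7.5 nL into about 7.5 µL; 0% = neutral wells and 100% = wells with inactivated enzyme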
Target sequence (P55789 whole entry, looked up): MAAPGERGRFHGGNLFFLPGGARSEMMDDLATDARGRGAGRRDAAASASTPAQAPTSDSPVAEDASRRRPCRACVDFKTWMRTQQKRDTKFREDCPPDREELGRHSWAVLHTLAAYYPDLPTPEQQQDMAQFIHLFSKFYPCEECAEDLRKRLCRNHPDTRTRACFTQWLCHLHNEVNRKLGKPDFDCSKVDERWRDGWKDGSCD
Ecoli growth: blocks Escherichia coli growth. 0.21% of 330,000 active. OD600 absorbance (concentration not given with the values). OD600, 23 h; hits give low values;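 active means OD600 absorbance below the run mean of sample wells minus 3.6 SD, in any replicate, cut at about 0.56 in these data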;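 further: stock transfer was 300 nL into about 60 µL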
Ecoli rRNA inh: inhibitors of bacterial rRNA selective over humanized ribosomes | E. coli WT GFP vs humanized-ribosome RFP mutants, fluorescence, 24 h; hits give low values; DMSO median 0, no signal -100 | GFP signal change (wild-type ribosome), % (test concentration not listed) | 1.6% of 350,000 active | AID 720706;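 active means significant combined selectivity score with lowered wild-type GFP, culture density cut under 30%, mutant RFP and density less affected; inactive means any of these conditions unmet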; further: one replicate is shown; some compounds called inactive have numbers as strong as hits
MLL AF4-AF9 inh: blocks AF4 peptide binding to human AF9; inhibition, % at 10 µM; AlphaScreen, biotin-AF4 peptide binding to FLAG-AF9; P42568; 0.47% of 350,000 active; AID 651704;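 active means every replicate reaching a set inhibition limit, whatever the replicate mean, cut at about 25% in these data; inconclusive means mean inhibition reaches that limit but some replicates miss it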;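 further: 0% = plate neutral control median and 100% = total signal loss; the record names both 10 and 1 µM as test concentration; the first replicate is given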
Vif TR-FRET: inhibitors of Vif binding to APOBEC3G peptide, primary screen, biochemical, TR-FRET, GST-Vif 1-94, biotin-A3G peptide, dose response retest (AID 1117319) | TR-FRET GST-Vif / biotin-A3G peptide binding; higher % means a stronger effect; test concentration not given here; strong numbers were not always called active | inhibition, %, or IC50 in µM where a hit was titrated | 0.57% of 260,000 active;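 active means above the screen mean plus three standard deviations and confirmed in dose response; inconclusive means results disagree or hit not tested in dose response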;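 further: Vif residues 1-94 fused to GST binding biotinylated APOBEC3G peptide 110-148; 0% = full assay without inhibitor and 100% = GST in place of GST-Vif; retest series ran down from 100 µM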
FGF22 binding: binders of recombinant human FGF22 by thermal shift; SYPRO orange fluorescence; percent of sucrose octasulfate shift, DMSO zero; calls only at 9.99 µM; 1.5% of 340,000 active;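 active means melting point raised past a set limit in the mean and every replicate; inconclusive means no clear call; three in four hits are not shown here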
Target sequence (Q9HCT0 whole entry, looked up): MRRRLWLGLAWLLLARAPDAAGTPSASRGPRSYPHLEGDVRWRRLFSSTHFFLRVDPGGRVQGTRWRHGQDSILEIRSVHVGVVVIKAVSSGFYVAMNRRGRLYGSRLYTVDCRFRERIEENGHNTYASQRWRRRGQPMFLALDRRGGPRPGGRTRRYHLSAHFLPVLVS
Ecoli rRNA inh OD600: second read-out of Ecoli rRNA inh, no call of its own (marks repeat the call); OD600 change, %; measured here: OD600 growth;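 optical density of the mix in the first replicate; 0 = DMSO median and -100 = no signal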
Ecoli rRNA inh RFP: recorded beside Ecoli rRNA inh, whose call it bears; RFP signal change, %; measured here: RFP humanized mutant strains;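 first replicate; 0 = DMSO median and -100 = no signal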
Active calls of the source: *; i = inactive; ? = inconclusive; · = not tested or not shown; + = active, no number; & = joins results of further samples. These rows are one share of the data. The share of hits here may be higher or lower than overall.

SMILES	HNF4A DNA FP	ALR H2O2 inh	Ecoli growth	Ecoli rRNA inh	Ecoli rRNA inh OD600	Ecoli rRNA inh RFP	MLL AF4-AF9 inh	Vif TR-FRET	FGF22 binding
COc1ccc(Cc2nc(C(=O)Nc3ccc(Cl)cc3)cs2)cc1	-0.4	-5	0.72	·	·	·	·	13%	·
CCOC(=O)c1sc(C)c2c(=O)n(CC(=O)c3ccc(Br)cc3)nnc12	-1.4	-11	0.74	·	·	·	·	1%	·
COc1ccc2c3c(n(C)c2c1)[C@@H](CO)N(C(=O)Nc1ccccc1F)CC31CCN(C(C)=O)CC1	·	·	·	-4	-5	-1.8	1.0	·	i
NS(=O)(=O)c1ccc(CNC(=O)CSc2ccccc2)cc1	1.2	19	0.74	22	18	1.1	-1.1	-5%	i
CCOC(=O)C1=C[C@@H](C(C)(C)C)N(S(=O)(=O)c2ccc(C)cc2)[C@H]1c1ccc(F)cc1	2.6	·	·	16	-1	-4.7	-0.9	·	i
O[C@H]1C[C@H](c2ccccc2)N(CC2CCCCC2)C[C@@H]1n1cc(-c2ccc(F)cc2)nn1	-0.7	·	·	1	4	-0.6	1.0	-8%	i
COc1cccc(CNCc2ccccc2OC)c1	-2.5	-10	0.68	11	5	4.7	0.0	·	i
COC(=O)COc1ccc2c(c1)O/C(=C\c1ccco1)C2=O	-3.9	9	0.69	12	18	-0.1	-0.6	24%	i
Cc1ccccc1S(=O)(=O)N1C[C@H]2CON(C)[C@H]2C[C@H]1c1cccc(Br)c1	1.2	·	·	-16	-35	-8.7	1.5	·	i
Cc1nc(C)c(-c2ccnc(/N=C/NO)n2)s1	-7.2	0	·	-7	-2	-0.2	·	-11%	i
CCOc1ccccc1OCCCC(=O)Nc1cc(S(=O)(=O)N2CCCCC2)ccc1C	3.7	·	·	8	-11	-0.7	2.9	-11%	·
COc1ccccc1NC(=O)/C=C1\NC(=O)CS1	-1.6	22	0.68	2	7	3.4	-1.1	-3%	i
CCCC#Cc1ccc2c(c1)O[C@H](CN(C)Cc1cncnc1)[C@H](C)CN([C@H](C)CO)S2(=O)=O	·	·	·	-3	-11	7.5	6.1	·	i
O=C(N[C@H]1CC[C@H](CCn2cc(C3(O)CCCC3)nn2)O[C@@H]1CO)C1CCCC1	·	·	·	2	4	0.5	0.7	·	i
O=C(O)CCC(=O)Nc1ccc(Br)cn1	1.8	-6	0.68	·	·	·	·	1%	·
O=C1c2ccccc2C(=O)N1CNc1ccccc1	2.5	-1	0.7	·	·	·	·	-5%	·
CCOc1ccc(NC(=O)COC(=O)Cn2nc(C)c([N+](=O)[O-])c2C)cc1OCC	4.0	-2	0.68	3	6	-3.1	-0.1	·	i
C[C@H](CO)N1C[C@H](C)[C@H](CN(C)S(=O)(=O)c2ccccc2)OCc2cnnn2CCCC1=O	2.5	·	·	6&-1	8&2	-5.1&-4.1	2.5&-0.1	3%	i
C[C@@H]1CN([C@H](C)CO)C(=O)c2cc(NC(=O)Cn3cnnn3)ccc2O[C@H]1CN(C)C(=O)Nc1ccc2c(c1)OCO2	·	·	·	3	-1	-1.2	-10	·	i
Cc1ccc(-c2cc(C(=O)N3CCN(C(=O)c4ccco4)CC3)[nH]n2)c(C)c1	-0.9	-9	0.7	4	10	-1.3	-1.4	·	i
CCOC(=O)c1sc(=S)n(-c2cc(F)ccc2F)c1N	7.7	5	0.66	·	·	·	·	2%	·
CCCCN(C)C(=O)c1nc2ccccn2c1CN1CCC[C@H]1CO	12	·	0.69	12	4	1.1	-5.8	·	i
S=C(NC1CCCCC1)N1CCOCCOCCN(C(=S)NC2CCCCC2)CCOCCOCC1	-3.5	-7	0.69	0	-7	1.7	·	-10%	i
COc1ccc(CCNC(=O)Cn2nnc(C(=O)Nc3cccc(C)c3C)c2N)cc1OC	-1.7	-4	0.64	-6	-10	0.0	-3.8	-10%	i
CC1CCN(C(=O)c2cc(N3C(=O)C4C5CCC(C5)C4C3=O)ccc2Cl)CC1 (stereo not drawn)	·	-8	0.7	·	·	·	·	4%	·

(more compounds)
SMILES	HNF4A DNA FP	ALR H2O2 inh	Ecoli growth	Ecoli rRNA inh	Ecoli rRNA inh OD600	Ecoli rRNA inh RFP	MLL AF4-AF9 inh	Vif TR-FRET	FGF22 binding
O=C(Cn1c(NCCO)nc2ccccc21)c1ccco1	4.4	0	0.72	10	10	-2.3	5.1	4%	i
Cc1ccccc1CN1CCc2c(OCC(=O)N3CCCCC3)cccc2C1=O	-1.1	52	0.67	-25*	-18*	-1.8*	-0.6	-1%	i
N#Cc1nc(-c2ccccc2Cl)oc1NCC1CCCO1 (stereo not drawn)	-0.1	-4	0.71	-15	-31	-6.3	2.3	-3%	i
O=C(c1ccncc1)N1CC[C@H]2[C@H](CO)Nc3ccc(-c4ccccc4)cc3[C@H]21	·	·	·	-6	-2	-2.0	3.2	·	i
COCCn1c(=S)[nH]c2ccccc21	-2.8	25	0.64	9	-5	-4.7	6.5	-1%	i
Cc1cc(C(=O)Cn2cnc3ccccc3c2=O)c(C)n1C1CC1	3.7	-2	0.67	10	11	0.9	-0.4	·	i
Cc1cc(C)c(NC(=O)CNC(=O)[C@@H]2CCCN2C(=O)c2cccs2)c(C)c1	-3.4	-1	0.69	3	11	-1.9	3.4	-3%	i
CCCN(CC1CC1)C(=S)NC(=O)c1ccc(S(=O)(=O)N2CCOCC2)cc1	4.7	·	0.7	-57	-77	-27	-13	-8%	i
Cn1nc(C2CC2)cc1NC(=O)C1(C)CCN1C(=O)CCc1ccccc1 (stereo not drawn)	-0.5	·	·	5	5	-1.9	-3.5	·	i
COc1ccc(-c2nc3ccc(Br)cn3c2Cc2ccccc2)cc1OC	15	·	·	-1	-3	-2.1	8.4	·	i
C[C@@H]1CN([C@H](C)CO)C(=O)c2cccc(NC(=O)c3ccncc3)c2O[C@H]1CN(C)Cc1ccc2c(c1)OCO2	·	·	·	-4	-14	-1.6	5.5	·	i
Cc1ccc(/C=N/NC(=O)CSc2nnc(-c3ccc(Cl)cc3)n2-c2ccc(Cl)cc2)o1	5.1	-42	·	·	·	·	1.4	·	i
COc1cccc(C=N[C@@H](CO)[C@@H](O)c2ccc([N+](=O)[O-])cc2)c1O	13	9	0.67	17	5	-1.4	0.7	12%	i
COC(=O)[C@]12C[C@H](CC(=O)NCCC(C)C)C(=O)N(CCc3ccc(OC)c(OC)c3)C1=C[C@H](C(C)(C)C)O[C@@H]2C	·	·	·	5	-3	7.1	0.5	·	i
O=C(NCC1CC1)c1cc2c(c(-c3cccc(-c4ccccc4F)c3)n1)[C@H](CCO)N(C(=O)CC1CC1)C2	1.9	·	·	-2	5	3.8	0.2	·	i
CCOC(=O)N1CCN(c2c(NCCCOC(C)C)c(=O)c2=O)CC1	-2.2	-6	0.72	6	7	-1.0	2.3	16%	i
Clc1ccc(SCc2cc(Cl)nc(-c3ccccc3)n2)cc1	-0.6	-11	0.69	·	·	·	·	·	·
C[C@@H]1CN([C@@H](C)CO)C(=O)Cc2cc(NC(=O)NC3CCCCC3)ccc2O[C@H]1CN(C)S(=O)(=O)c1ccc(F)cc1	·	·	·	-3	-9	-2.3	2.9	·	i
O=c1oc(-c2ccccc2)nc2c1C1(CCCCC1)Cc1ccccc1-2	-5.8	-23	0.65	·	·	·	·	6%	·
COc1cc(/C=C2/S/C(=N/S(=O)(=O)Cc3ccccc3)NC2=O)c([N+](=O)[O-])cc1OC	0.6	29	0.71	1	2	0.7	-3.1	?	+
CCCN1C(=O)SC(CC(=O)Nc2ccc(Br)cc2)C1=O (stereo not drawn)	-0.8	-11	0.67	·	·	·	·	9%	·
OC[C@@H]1[C@H](c2ccc(C#Cc3ccccc3F)cc2)[C@@H]2CN(Cc3cncnc3)CCCCN12	·	·	·	2	-33	9.5	6.5	·	i
CCOC(=O)N1CCC(N2C(=O)c3ccc(C(=O)Nc4ccc(F)cc4F)cc3C2=O)CC1	3.6	·	0.76	13	6	-5.1	0.5	-4%	i
CC1=C(n2ccnc2)CCC1=O	2.9	-15	0.62	·	·	·	·	·	·
COc1ccccc1/C=C/C=N/NC(=O)CCC1C(=O)NN=C1C (stereo not drawn)	1.1	5	·	6	16	2.1	1.7	·	i

Additional results
SMILES	HNF4A DNA FP	ALR H2O2 inh	Ecoli growth	Ecoli rRNA inh	Ecoli rRNA inh OD600	Ecoli rRNA inh RFP	MLL AF4-AF9 inh	Vif TR-FRET	FGF22 binding
COc1ccc(NC(=O)N(C)C[C@H]2OCCCC[C@H](C)Oc3ccc(NC(=O)Nc4ccc(C(F)(F)F)cc4)cc3C(=O)N([C@H](C)CO)C[C@@H]2C)cc1	·	·	·	2	11	0.3	-2.2	·	i
COCCNC(=S)N(CCc1c(C)[nH]c2ccc(C)cc12)Cc1cc(OC)c(OC)c(OC)c1	6.0	·	0.75	3	4	7.8	-3.7	2%	i
COc1ccc(/C=C2\SC(N3CCc4ccccc4C3)=NC2=O)cc1	1.7	-3	0.7	-39	-70	-11	-1.1	7%	i
COCC(=O)N(C)C[C@@H]1Oc2ncc(C#Cc3cccnc3)cc2C(=O)N([C@@H](C)CO)C[C@H]1C	·	·	·	4	7	0.9	-19	·	i
Cn1c(C(=O)O)c(CC(=O)Nc2ccc3c(c2)OCCO3)c2ccccc21	-0.2	-29	0.68	·	·	·	·	8%	·
Cc1noc(C)c1NC(=O)N(C)C[C@@H]1OCCCC[C@@H](C)Oc2ccc(NC(=O)Cc3ccccc3)cc2C(=O)N([C@H](C)CO)C[C@H]1C	·	·	·	0	-4	-2.4	-2.2	·	i
CCCNC(=O)C[C@@H]1CC[C@@H]2[C@H](COc3ccc(NS(=O)(=O)CC)cc3C(=O)N2C)O1	·	·	·	-1	1	-0.2	-2.1	·	i
Cc1cccc(-[n+]2c(-c3cccc(Br)c3)[nH]c3nc4ccccc4nc32)c1	4.0	15	·	5	10	-0.8	·	-22%	i
CCOC(=O)N(C)c1c(CC)nc2c(OCc3ccc(F)cc3)cccn12	3.7	·	·	10	12	1.5	0.9	·	i
CO[C@@H]1CN(C)C(=O)c2ccc(NC(C)=O)cc2OC[C@H](C)N(CCc2ccccc2)C[C@@H]1C	·	·	·	1	2	-1.2	0.4	·	i
CC(C)(C)c1cc[n+](-c2[nH]c(=O)sc2/C=N/N=C(\[O-])c2cccnc2)cc1	-0.1	9	·	3	13	-2.5	0.2	·	i
O=C(C[C@H]1C[C@@H]2c3cc(NS(=O)(=O)c4ccc(F)cc4)ccc3O[C@@H]2[C@H](CO)O1)NC1CCCC1	·	·	·	1	1	-0.9	-3.0	·	i
COC(=O)Cc1cc(OC)c(OC)cc1S(=O)(=O)N(C)C	-3.9	-2	0.68	23	10	3.7	-0.4	0%	i
C[C@H](CO)N1C[C@H](C)[C@@H](CN(C)C(=O)NC2CCCCC2)Oc2ccc(NS(=O)(=O)c3ccc(F)cc3)cc2CC1=O	·	·	·	-1	-1	0.1	-1.1	·	i
CC(=O)CC(=O)Nc1ncc(C(F)(F)F)cc1Cl	-2.9	-11	0.68	17	15	-1.6	0.2	4%	·
COc1ccccc1N1CCN(C(=O)c2ccoc2C)CC1	1.7	70	0.73	·	·	·	·	34%	·
